Assay outcomes from PubChem.
gsp antag = antagonists of gsp mutant (McCune-Albright syndrome) | gsp-mutant cells, cAMP HTRF, 30 min; control for the full effect not named in the record | 0.4% of 340,000 active | AID 624288 | Potency, µM (top dose mostly 76.9 µM), without a hit: at the top dose activity change, negative = inhibition, most hits filed as inhibitors; active = falling curve of any shape with a large fitted effect; inconclusive = falling curve, mostly with a smaller effect; inactive = flat or rising curve; cell line not stated here;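 note: intracellular cAMP measured with PDE inhibitor Ro 20-1724 present during compound exposure; potency is the fitted concentration of half-maximal effect; % is set by controls: 0 for no effect and ±100 for the full control effect; nearly all actives have a fitted effect of over 65% in size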
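HTRF cAMP read-out (cAMP-d2 plus anti-cAMP antibody-K in lysis buffer, 30 min RT). Before lysis, cells are exposed to compounds with […] for 30 min at 37C in DPBS containing Ca/Mg, BSA and Tween 20.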
ClpP mod = qHTS Assay for Activators of ClpP; AID 651965, 2013; purified B. subtilis ClpP, FRET peptide cleavage, 20 min; 1.9% of 340,000 active; Potency, µM (doses to about 57.5 µM), for the others: top-dose activity change, negative = active; ATP-dependent Clp protease proteolytic subunit (Bacillus subtilis (strain 168)), P80244; active = well fitted falling curve with a large enough effect; inconclusive = small, poorly fitted or top-dose-only effect; inactive = no such curve, though single readings can be large or run the other way; note: potency is the fitted concentration of half-maximal effect; the source files actives as falling curves though it sought activators and does not explain the sign; nearly all actives have a fitted effect of over 65% in size; many hits overshoot -100%
Target sequence (P80244 whole entry, looked up): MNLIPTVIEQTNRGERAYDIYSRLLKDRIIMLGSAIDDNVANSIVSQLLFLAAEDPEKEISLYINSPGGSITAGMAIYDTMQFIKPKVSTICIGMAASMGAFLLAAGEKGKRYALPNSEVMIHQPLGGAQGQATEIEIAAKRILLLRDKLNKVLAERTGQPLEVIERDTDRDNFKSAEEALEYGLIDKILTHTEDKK
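ClpP 10 microg/mL final, pH 8 Tris/KCl buffer with BSA, glycerol, Tween-20; compound pinned in; FRET-FV substrate; RT 20 min; Ex320/Em430; ΔFRET vs ADEP 5.8 microM, DMSO, no enzyme.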
D2 ag = agonists of human D2 dopamine receptor (beta-arrestin). P14416. 0.084% of 360,000 active. activation, % (concentration not given with the values). DiscoveRx PathHunter D2 beta-arrestin, luminescence, 90 min; 100% = 57 uM dopamine signal; in the data active = activation above about 40%; inconclusive = about 15% to 40%; inactive = below about 15%; note: compound concentration not given in the record; the text of the record calls up to 30% inactive
Target sequence (P14416 whole entry, looked up): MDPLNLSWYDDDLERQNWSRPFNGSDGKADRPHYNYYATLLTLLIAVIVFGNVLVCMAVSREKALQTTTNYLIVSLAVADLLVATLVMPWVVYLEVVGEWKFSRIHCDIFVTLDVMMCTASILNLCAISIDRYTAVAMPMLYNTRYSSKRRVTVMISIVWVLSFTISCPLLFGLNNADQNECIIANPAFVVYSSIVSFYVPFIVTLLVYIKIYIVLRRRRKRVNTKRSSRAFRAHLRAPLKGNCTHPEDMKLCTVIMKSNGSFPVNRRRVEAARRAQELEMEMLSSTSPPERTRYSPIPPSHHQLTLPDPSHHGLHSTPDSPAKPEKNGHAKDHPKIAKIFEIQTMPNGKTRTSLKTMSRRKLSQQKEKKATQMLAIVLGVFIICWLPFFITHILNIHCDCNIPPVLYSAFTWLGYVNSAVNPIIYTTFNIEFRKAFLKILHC
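Agonist mode: compounds alone added to overnight-plated D2 PathHunter cells for 90 min at 37 C, with 57 uM final dopamine (EC100) defining full response. Beta-arrestin recruitment detected by chemiluminescent reagent, read after 1 h at ambient temperature.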
Menin MLL FP FL = displaces fluorescein MLL peptide from human menin | Fluorescence polarization, fluorescein-MLL peptide displacement from menin | FP activity change, % at 61.4 µM | AID 1766 | 290,000 tested, under 10 active; inconclusive = falling polarisation curve, or a change in total fluorescence; inactive = total fluorescence flat and polarisation flat or rising; no compound was filed as active; the % refers to the polarisation; negative = inhibition;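 note: % of control where 0% means no effect; inhibitors lower the polarisation; unlabelled MLL peptide was the positive control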
gsp ag = activates gsp, the McCune-Albright syndrome mutation. Potency, µM (highest dose often 76.9 µM), without a hit: at the top dose activation (cAMP increase), hits mostly activators. 0.13% of 340,000 active. AID 624287. gsp mutant cells, cAMP HTRF, 30 min; control for the full effect not named in the record; active = well fitted activation curve with a large enough effect; inconclusive = small, poorly fitted or top-dose-only effect, or another doubt; inactive = no such curve, though single readings can be large or run the other way; cell line not stated here;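 note: phosphodiesterase inhibitor Ro 20-1724 added with compounds to block cAMP breakdown; potency is the fitted concentration of half-maximal effect; nearly all actives have a fitted effect of over 60% in size; about a fifth of the inactives were tested at one dose only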
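Cells in DMEM/10% FBS with G418 were pretreated with compounds in DMSO plus […] (300 uM stock) for 30 min at 37C. cAMP was measured by HTRF (cAMP-d2 plus anti-cAMP antibody-K) after 30 min at room temperature.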
Sfp inh = inhibitors of Bacillus subtilis Sfp phosphopantetheinyl transferase; Q9F4F7; Biochemical Sfp PPTase activity, qHTS; Potency, µM, for the others: max response, negative = inhibition, actives largely listed as inhibitors; 3.5% of 310,000 active; AID 1490; active = well fitted inhibition curve with a large enough effect; inconclusive = small, poorly fitted or top-dose-only effect, or another doubt; inactive = no such curve, though single readings can be large or run the other way;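 note: the enzyme is Sfp with the accession as filed and its product quenches rhodamine fluorescence; potency is the fitted concentration of half-maximal effect; 0% = enzyme reaction without inhibitor and -100% = no enzyme wells; top concentration of the series not given in the record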
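Reaction rates are the 30-min fluorescence difference (ex 525, em 598 nm) in wells containing 15 nM Sfp, 5 uM rhodamine-CoA and 12.5 uM BHQ-2-YbbR at pH 7.6 with 10 mM MgCl2.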
PINK1 modulator = changes PINK1 expression; PINK1 immunofluorescence, high-content cytometry, 24 h; Potency, µM (top dose mostly 76.6 µM), for inactives: at the highest dose activation (PINK1 increase), actives largely listed as activators; 0.2% of 410,000 active; active = well fitted activation curve with a large enough effect; inconclusive = small, poorly fitted or top-dose-only effect; inactive = flat fitted curve, though single readings scatter; cell line not stated here;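 note: potency is the fitted concentration of half-maximal effect; % of control where 0% means no effect; nearly all actives have a fitted effect of over 65% in size; a mitochondrial uncoupler was the plate control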
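Compound titrations (5 concentrations, 24 h) on a stable cell line; DMSO and CCCP controls. Endpoint: fixed-cell PINK1 immunofluorescence with mitochondrial, cell and nuclear markers, scanned by microplate cytometer.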
Numbers without * were called inactive; [ ] = another dose, or the depositor's remark.

Results for CCC(=O)N1CCC1(C)C(=O)Nc1nccs1 (stereo unspecified) ?
ClpP mod: 0.6%; D2 ag: -8.2; PINK1 modulator: 1.5%

What do the screens show for `Cc1cc(C)nc(NS(=O)(=O)c2ccc(N/C=C/C(=O)c3ccc(Cl)cc3)cc2)n1`?
gsp antag: -14%; ClpP mod: -2.8%; D2 ag: 5.1; Menin MLL FP FL: 3.9; gsp ag: inconclusive; Sfp inh: 4%; PINK1 modulator: 2.3%

What do the screens show for `CCN1C(=O)/C(=C2/C(=O)N3c4c(cc(OC(C)=O)cc42)C(C)=CC3(C)C)SC1=S`?
gsp antag: -2%; ClpP mod: -0.5%; D2 ag: inconclusive; gsp ag: 25%[15.4 µM]; Sfp inh: 7%; PINK1 modulator: 3.4%

What do the screens show for `O=C(O)c1ccc2c(c1)N(Cc1ccccc1F)C(=O)c1ccccc1S2=O` (stereo unspecified)?
gsp antag: -3%; ClpP mod: -1.0%; D2 ag: 0.4; Menin MLL FP FL: -1.7; gsp ag: -3%; Sfp inh: 20%; PINK1 modulator: 4.6%

What do the screens show for `O=C(CCN1CCCCCC1)Nc1cccc(F)c1`?
gsp antag: 5%; ClpP mod: -1.5%; D2 ag: -3.3; Menin MLL FP FL: -1.0; gsp ag: -32%[inhibitor]; Sfp inh: 11%; PINK1 modulator: -0.9%

Results for Cc1ccccc1N1C(=O)C2CCCN2C1=S (stereo unspecified) ?
gsp antag: 15%; ClpP mod: 1.1%; D2 ag: inconclusive; gsp ag: 0%; PINK1 modulator: 1.9%

How did CCCN(CC(=O)Nc1ccccc1OC)C(=O)c1ccc2ncsc2c1 do in these assays?
gsp antag: -7%; ClpP mod: -1.7%; D2 ag: -3.5; gsp ag: 0%; PINK1 modulator: 1.3%

How did COc1ccccc1CNC(=O)C(C)NS(=O)(=O)c1ccccc1 (stereo unspecified) do in these assays?
gsp antag: 2%; ClpP mod: -0.9%; D2 ag: -1.2; Menin MLL FP FL: 2.0; gsp ag: 5%; Sfp inh: -56%; PINK1 modulator: 1.5%

Results for CCCn1c(N)c(C(=O)CN2CCc3ccccc3C2)c(=O)n(C)c1=O ?
gsp antag: -7%; ClpP mod: -0.3%; D2 ag: -8.9; Menin MLL FP FL: 0.2; gsp ag: 2%[15.4 µM]; Sfp inh: -25%; PINK1 modulator: -0.9%

How did CCN(CC)c1ccc(NC(=O)COC(=O)/C=C/c2nc3ccccc3s2)cc1 do in these assays?
gsp antag: -5%; D2 ag: 1.4; Menin MLL FP FL: 5.6; gsp ag: -6%[15.4 µM]; Sfp inh: -10%; PINK1 modulator: 2.1%

How did O=C(Nc1ccccc1)Nc1csc2ccccc12 do in these assays?
gsp antag: -13%; D2 ag: -0.8; Menin MLL FP FL: 3.1; gsp ag: 1%[15.4 µM]; Sfp inh: 50µM*; PINK1 modulator: inconclusive

How did COC(=O)C1=C(C)N(c2cc(C)cc(C)c2)/C(=C/c2ccc(O)cc2)C1=O do in these assays?
gsp antag: -24%; ClpP mod: -0.4%; D2 ag: -5.6; Menin MLL FP FL: inconclusive; gsp ag: -23%; Sfp inh: 45µM*; PINK1 modulator: 7.8%

Results for CC1=C(C(=O)N(C(C)C)C(C)C)CC(CC(=O)NCCCCc2ccccc2)C(=O)N1CCC1=CCCCC1 (stereo unspecified) ?
ClpP mod: -0.5%; D2 ag: -4.2; PINK1 modulator: 13%

Results for CN(C)C=C1C(=O)c2ccccc2C1=O ?
gsp antag: -6%[15.4 µM]; ClpP mod: 0.4%; D2 ag: 0.8; Menin MLL FP FL: -0.1; gsp ag: -32%[inhibitor]; Sfp inh: 5%; PINK1 modulator: 2.0%

What do the screens show for `CCCSc1nnc2nc(C)cc(C)n12`?
gsp antag: 4%; ClpP mod: -18%; D2 ag: -0.3; Menin MLL FP FL: 1.1; gsp ag: 30%; Sfp inh: 24%; PINK1 modulator: 1.5%

What do the screens show for `CN(C)CC(CCC(CN(C)C)C(=O)c1ccccc1)C(=O)c1ccccc1` (stereo unspecified)?
gsp antag: 27%; ClpP mod: 0.8%; D2 ag: -16; Menin MLL FP FL: 1.8; gsp ag: -1%[15.4 µM]; Sfp inh: -8%; PINK1 modulator: -1.7%

How did O=C(C1CCN(S(=O)(=O)c2ccc(F)cc2)CC1)N1CC=C(c2ccccc2)CC1 do in these assays?
gsp antag: 1%; ClpP mod: 1.5%; D2 ag: -1.8; Menin MLL FP FL: 0.4; gsp ag: 2%; Sfp inh: 9%; PINK1 modulator: -1.1%

What do the screens show for `CN(C)C(CNc1ccc(S(C)(=O)=O)cc1[N+](=O)[O-])c1ccccc1` (stereo unspecified)?
gsp antag: 2%; D2 ag: 0.6; Menin MLL FP FL: -1.9; gsp ag: 18%; Sfp inh: 11%; PINK1 modulator: 2.0%

How did CC(NC(=O)CN(C)S(=O)(=O)c1ccc(F)cc1)C1CC2CCC1C2 (stereo unspecified) do in these assays?
gsp antag: -2%; ClpP mod: -0.6%; D2 ag: 4.4; gsp ag: -10%; PINK1 modulator: -0.5%

What do the screens show for `COc1ccc(CC(=O)Nc2sc(Cc3ccccc3)c(C)c2C(N)=O)cc1`?
gsp antag: -1%; ClpP mod: 23%; D2 ag: 0.1; Menin MLL FP FL: -0.8; gsp ag: -38%; Sfp inh: -9%; PINK1 modulator: 28%[38.3 µM]

What do the screens show for `CCO[C@H]1OC(C(=O)N2CCCCCCC2)=C[C@@H](C)[C@@H]1CCCO`?
gsp antag: 12%; ClpP mod: 0.7%; D2 ag: -3.9; Menin MLL FP FL: 1.5; Sfp inh: -10%; PINK1 modulator: -0.3%

Results for Cc1ccc(S(=O)(=O)N2CCCCC2)cc1NC(=O)COC(=O)C1CC2C=CC1C2 (stereo unspecified) ?
gsp antag: 3%; ClpP mod: -0.4%; D2 ag: 1.2; Menin MLL FP FL: 5.2; gsp ag: 7%[15.4 µM]; Sfp inh: 23%; PINK1 modulator: 3.3%

What do the screens show for `Cc1cccc(C)c1NC(=O)CC(NCc1ccco1)C(=O)O` (stereo unspecified)?
gsp antag: 1%; ClpP mod: 1.2%; D2 ag: -1.1; Menin MLL FP FL: 5.9; gsp ag: -3%[15.4 µM]; Sfp inh: -27%; PINK1 modulator: 0.5%

How did Cc1nn(CC(=O)NC2(C#N)CCCCC2)c(C)c1[N+](=O)[O-] do in these assays?
gsp antag: 4%; ClpP mod: 2.1%; D2 ag: -4.9; gsp ag: inconclusive; PINK1 modulator: -0.5%

What do the screens show for `O=c1[nH][nH]c(-c2ccccc2)c1C=Nc1ccc(F)cc1F`?
gsp antag: 3%; ClpP mod: -1.2%; D2 ag: -3.4; Menin MLL FP FL: 1.7; gsp ag: 10%; Sfp inh: 8%; PINK1 modulator: -0.8%

Results for COCCCNC(=O)c1c(-c2ccccc2)noc1C ?
gsp antag: -4%; ClpP mod: 1.0%; D2 ag: -1.3; Menin MLL FP FL: 0.6; gsp ag: -52%[inhibitor]; Sfp inh: 18%; PINK1 modulator: -3.0%

Results for CCCCN(C(=S)Nc1ccc(F)cc1)c1c(N)n(CCC)c(=O)[nH]c1=O ?
gsp antag: 17%; D2 ag: -4.2; Menin MLL FP FL: -0.6; gsp ag: -9%[15.4 µM]; Sfp inh: 14%; PINK1 modulator: 1.3%

Results for CC(C)(C)c1ccc(C(=O)Nc2cccc(-n3cnnn3)c2)cc1 ?
gsp antag: 5%; ClpP mod: 0.3%; D2 ag: 2.7; gsp ag: -4%; Sfp inh: -10%; PINK1 modulator: 3.8%

Results for COc1ccc(S(=O)(=O)Nc2c(C(=O)O)[nH]c3ccccc23)c(OC)c1 ?
gsp antag: 5%; ClpP mod: -1.0%; D2 ag: -1.4; Menin MLL FP FL: -1.0; gsp ag: -25%; Sfp inh: 13%; PINK1 modulator: 2.0%

Results for COc1ccc(NC(=O)CN(C)C(=O)c2cc(C)oc2C)cc1 ?
ClpP mod: -2.1%; D2 ag: -1.3; gsp ag: -26%; PINK1 modulator: 0.2%

Results for CCCCN(C(=O)c1ccc(C)c(S(=O)(=O)N2CCOCC2)c1)c1c(N)n(CCCC)c(=O)[nH]c1=O ?
gsp antag: 12%; ClpP mod: -3.5%; D2 ag: -4.0; gsp ag: -4%; PINK1 modulator: -0.5%

What do the screens show for `CC(OC(=O)c1nc(Cl)ccc1Cl)C(=O)Nc1ccc2c(c1)OCCO2` (stereo unspecified)?
gsp antag: -7%; D2 ag: 3.0; gsp ag: 59%[15.4 µM]; PINK1 modulator: -2.6%

Results for Cc1ccc(C(=O)Nc2ccc(C(=O)O)cc2NC(=O)c2ccc(C)cc2)cc1 ?
gsp antag: -6%; ClpP mod: 1.9%; D2 ag: -0.3; Menin MLL FP FL: 0.1; gsp ag: -36%[inhibitor]; Sfp inh: -12%; PINK1 modulator: 1.2%

Results for Cc1cc(C)c(S(=O)(=O)N2CCN(S(=O)(=O)N3CCC(C)CC3)CC2)c(C)c1 ?
gsp antag: 7%; D2 ag: 0.8; Menin MLL FP FL: -0.1; gsp ag: -22%[15.4 µM]; Sfp inh: 4%; PINK1 modulator: 4.6%

Results for CC(=O)N1N=C(c2ccc(Br)cc2)CC1c1ccc(Br)cc1 (stereo unspecified) ?
ClpP mod: -8.7%; D2 ag: -3.8; gsp ag: -1%; PINK1 modulator: -0.7%

How did COc1cccc(C(=O)CN(C(=O)c2ccc(Cl)c(Cl)c2)N2C(=O)C3CCCCC3C2=O)c1 (stereo unspecified) do in these assays?
gsp antag: -23%; ClpP mod: 2.2%; D2 ag: -2.1; Menin MLL FP FL: 1.9; gsp ag: -41%[inhibitor]; Sfp inh: 4%; PINK1 modulator: inconclusive

Random excerpt: 2 compounds from above
What do the screens show for `O=c1[nH][nH]c(-c2ccccc2)c1C=Nc1ccc(F)cc1F`?
gsp antag: 3%; ClpP mod: -1.2%; D2 ag: -3.4; Menin MLL FP FL: 1.7; gsp ag: 10%; Sfp inh: 8%; PINK1 modulator: -0.8%

What do the screens show for `CC(OC(=O)c1nc(Cl)ccc1Cl)C(=O)Nc1ccc2c(c1)OCCO2` (stereo unspecified)?
gsp antag: -7%; D2 ag: 3.0; gsp ag: 59%[15.4 µM]; PINK1 modulator: -2.6%
